ugtP null kill = compounds lethal to S. aureus RN4220 ugtP deletion mutant; OD600 growth, 16 h; some inactives read as strong as hits; growth inhibition, % (concentration not given with the values); 0.54% of 330,000 active;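 active = z-score under -3 and OD600 up to 0.15 on both plates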;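 also: plate controls were untreated wells for no effect and antibiotic for full effect; wells of about 80 µL received 100 nL stock; the first replicate is given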
BJeLR lethal = BJeLR cell viability loss. BJeLR (HRASV12) viability, CellTiter-Glo ATP luminescence, 48 h; reference of the scale not given here. inhibition, % (no concentration beside the values). 0.17% of 300,000 active;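 active = replicate mean above 50%; inconclusive = above 50% but judged a plate artefact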;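 also: 50 nL library stock added to about 25 µL; numbers are from one replicate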
Mtb hypoxia inh = inhibitors of hypoxia-regulated fluorescent reporter in Mycobacterium tuberculosis | M. tuberculosis hypoxia-regulated fluorescent reporter, fluorescence | fluorescence inhibition, % (concentration not given with the values) | 0.1% of 300,000 active;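 active = 35 to 45% if threefold the growth effect, above 45% if 1.5-fold the growth effect; inactive = the rest, general growth blockers included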;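 also: wells of about 50 µL received 100 nL stock; 0% = vehicle wells and 100% = reference inhibitor wells; whole bacteria with a GFP reporter of the hypoxia response; strong numbers were not always called active; many hits fall short of the cut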
RN4220 kill = kills Staphylococcus aureus RN4220; inhibition, % (no concentration beside the values); 0.33% of 330,000 active; S. aureus RN4220 growth, OD600, 16 h; AID 1259311;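 active = z-score of -3 or lower and OD600 up to 0.18 on both plates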;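 also: plate controls were untreated cells for no effect and reference antibiotic for full effect; stock transfer was 100 nL into about 80 µL; one replicate is shown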
Autofluor counter = compound fluorescence in toxin protease inhibitor counterscreen; compound autofluorescence counterscreen, microsphere flow cytometry; hits give high values; fluorescence intensity (no concentration beside the values); 3.1% of 360,000 active; AID 624483;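 active = at least 3 SD above the mean of all compounds, about 16000 in these data; inconclusive = too few beads counted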;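 also: 100 nL of 1 mM stock went into each well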
PrP UTR inh = suppresses PrP 5' UTR mRNA reporter expression. AID 488862. inhibition, % (test concentration not listed). 0.35% of 340,000 active. cell-based PrP 5' UTR mRNA reporter, plate reader;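 active = every replicate at 50% or more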;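 also: 0 = median of the neutral control wells; tested in H4 reporter cells; numbers are from one replicate; inactives centre near -14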
Mtb hypoxia inh growth = further read-out of Mtb hypoxia inh, marked with its call; growth inhibition, %; measured here: M. tuberculosis growth (absorbance);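 0% = vehicle and 100% = reference antibiotic; read after six days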
Active calls of the source: *; ? = inconclusive; . = not tested or not shown; & = joins results of further samples.

SMILES | ugtP null kill | BJeLR lethal | Mtb hypoxia inh | Mtb hypoxia inh growth | RN4220 kill | Autofluor counter | PrP UTR inh
CCOC(=O)c1cc(-c2ccc(F)cc2)n(CC(=O)NCc2cccnc2)c1C | 2.2 | -9.1 | -10.2 | 5.0 | -0.5 | 2554 | -12.3
COc1ccc(NC(=O)Nc2c(C)n(C)n(-c3ccccc3)c2=O)cc1 | 5.0 | -5.6 | 1.9 | 13.2 | -1.2 | 6100 | 10.8
CCOc1ccccc1/C=C/C(=O)c1ccc(Cl)cc1 | 50.0 | -3.0 | 18.6 | 26.5 | -2.7 | 2454 | -19.5
CSCC[C@H](NC(=O)[C@@H]1CSC2c3ccccc3C(=O)N21)C(=O)NCc1ccco1 (some centres not stated) | 7.3 | 0.6 | 9.1 | 11.8 | 3.4 | 5805 | -9.9
COCCCNC(=O)/C(C#N)=C/c1cccc(NC(=O)c2ccccc2Cl)c1 | . | 8.2 | . | . | . | 10589 | -42.8
Cc1cc2c3c(ccc(C)c3n1)N=CN2c1ccccc1 | -7.9 | -2.5 | . | . | 1.7 | 2683 | -7.2
CCOc1ccc(NC(=S)N(CCOC)C(C)c2cccnc2)cc1 (configuration not stated) | -6.2 | -4.7 | 0.5 | -3.5 | -3.0 | 4436 | -16.9
CCC1C(=O)N=C(SCC(=O)Nc2ccc(S(N)(=O)=O)cc2)NC1=O (configuration not stated) | 0.3 | -0.5 | 5.5 | 5.6 | 6.8 | 3278 | -14.3
COc1ccc2ccccc2c1C(=O)/C=C\c1ccoc1 | 18.4 | -16.6 | 9.2 | 7.4 | 3.3 | 2527 | -17.3
Cc1ccc(C(=O)C2OC(=O)C(C)(C)C(=O)C2(C)C)cc1 (configuration not stated) | -0.6 | 1.2 | . | . | -1.2 | 2163 | -10.3
Cc1ccc(S(=O)(=O)N(C)C)cc1NC(=O)c1ccccc1SCC(=O)N1CCCC1 | 8.8 | . | -0.1 | -4.1 | 1.0 | 8091 | -7.4
O=C(NCc1ccccc1)C(c1ccccc1F)N(C(=O)c1csnn1)C1CCCC1 (configuration not stated) | 5.4 | -4.4 | 0.5 | 4.6 | 2.8 | 4686 | 6.4
CCOc1ccc2nc(NC(=S)NCc3ccccc3)sc2c1 | -0.6 | -4.7 | 12.6 | 21.8 | 3.7 | 20242* | -47.4
Cc1cc(C)cc(NC(=O)c2cc(C)nc3ccccc23)c1 | 0.9 | 0.1 | 5.2 | 4.2 | 1.6 | 3578 | -12.2
COc1ccc(C(=O)N/C(=C\c2cn(C)c3ccccc23)C(=O)OCCN(C)C)cc1 | 1.2 | 6.3 | 8.1 | 10.4 | 2.6 | 4895 | -17.6
O=C(Nc1ccccc1)C(=O)c1c[nH]c2ccccc12 | -3.1 | -4.1 | 10.8 | 10.4 | -2.3 | 3569 | -66.4
CCOC(=O)/C=C1\SCC(=O)N1CC(=O)Nc1cccc(F)c1 | 8.4 | 3.2 | 11.6 | 3.7 | 6.0 | 4366 | -41.8
Cc1cccc(OCC(=O)NC2CCCC2)c1 | 5.3 | -3.4 | . | . | 8.5 | 5815 | -11.1
Cc1cc(O)c(C(C)C)cc1N=Cc1ccccc1O | 15.6 | -2.3 | 2.3 | 8.3 | 6.6 | 5279 | -11.9
O=C(NC1=NCCS1)c1ccc2c(c1)C(=O)N(Cc1ccco1)C2=O | 6.9 | -9.6 | 6.1 | 10.4 | 6.2 | 11659 | -17.4
Nc1nonc1-n1nnc(C(=O)N/N=C/c2cccc(F)c2)c1CN1CCCC1 | . | -1.3 | . | . | . | 6915 | -23.2
CCOC(=O)c1c(C)n(C)c2ccc(OCC(O)CN(CC)CC)cc12 (configuration not stated) | 7.0 | -2.9 | 12.0 | 7.1 | 1.5 | 5998 | -29.0
COCc1cc(C)nc(SCc2nc3ccccc3c(=O)[nH]2)c1C#N | -6.6 | 1.6 | 0.5 | 3.4 | 4.7 | 2545 | -14.2
COc1ccc(S(=O)(=O)N2CCOCC2)cc1NC(=O)CSc1nc(C)c(C)c(C)n1 | -2.2 | . | -13.3 | 14.9 | 0.1 | ? | -11.0
COc1ccc(C(C(=O)NCC2CCCO2)N(C(=O)CNC(=O)c2ccco2)c2ccc(C)c(C)c2)cc1OC (configuration not stated) | -4.4 | -4.9 | 4.7 | -1.3 | 1.7 | 3546 | -20.8
N#Cc1c(NC(=O)CSC2=NCCS2)sc2c1CCCC2 | -7.5 | 10.6 | 3.8 | 9.4 | 8.2 | 16243* | -11.1
C=C(C)CSc1nc(N)c2c3c(sc2n1)CCC3 | 10.7 | 12.8 | 3.8 | 9.0 | 7.3 | 10702 | -92.1
CC(=O)Nc1ccc(NC(=O)COC(=O)c2c(-c3ccccc3)noc2C)cc1 | -0.5 | . | 2.1 | 9.0 | -0.5 | 3782 | -13.4
CCOc1ccc(CN2CCNC(=O)C2CC(=O)NCCCC2CCCC2)cc1 (configuration not stated) | 0.3 | -4.6 | -15.3 | 6.3 | 1.6 | 5889 | -17.3
CCN(CC)c1ncc(C)c(=O)[nH]1 | 6.1 | 5.7 | . | . | 2.3 | 2147 | -8.6
Clc1ccc(-n2ncc3c(NCc4ccco4)ncnc32)cc1 | -3.8 | 1.8 | 7.0 | 3.7 | 2.4 | 9658 | -46.6
COc1ccc(C(=O)C[n+]2cc(-c3ccc(OC)cc3)n3c2CCCC3)cc1 | -1.8&10.0 | 13.7&12.9 | 17.3&16.4 | 13.3&9.0 | 0.9&6.6 | 3984&3282 | -9.8&-13.0
Cc1cc(=O)oc2c3c(ccc12)OCC3=NN | 8.7 | . | 5.0 | 8.0 | 1.1 | . | .
Cc1cc(NC(=O)CS(=O)(=O)c2cn(Cc3ccc(F)cc3)c3ccccc23)no1 | -2.9 | -2.7 | 0.3 | 3.1 | 3.8 | 4317 | 1.4
Cc1nn(C)cc1C=NNC(=O)c1ccc(Cn2cc(Cl)cn2)cc1 | 8.2 | . | 5.8 | -0.3 | 0.2 | . | .
O=C(CCn1c(=O)oc2ccccc21)N1CCC2(CC1)OCCO2 | 1.4 | -5.7 | 20.3 | 6.4 | 1.9 | 4396 | -19.4

Four consecutive compounds out of the list so far, for reference:
SMILES | ugtP null kill | BJeLR lethal | Mtb hypoxia inh | Mtb hypoxia inh growth | RN4220 kill | Autofluor counter | PrP UTR inh
Clc1ccc(-n2ncc3c(NCc4ccco4)ncnc32)cc1 | -3.8 | 1.8 | 7.0 | 3.7 | 2.4 | 9658 | -46.6
COc1ccc(C(=O)C[n+]2cc(-c3ccc(OC)cc3)n3c2CCCC3)cc1 | -1.8&10.0 | 13.7&12.9 | 17.3&16.4 | 13.3&9.0 | 0.9&6.6 | 3984&3282 | -9.8&-13.0
Cc1cc(=O)oc2c3c(ccc12)OCC3=NN | 8.7 | . | 5.0 | 8.0 | 1.1 | . | .
Cc1cc(NC(=O)CS(=O)(=O)c2cn(Cc3ccc(F)cc3)c3ccccc23)no1 | -2.9 | -2.7 | 0.3 | 3.1 | 3.8 | 4317 | 1.4

The listing continues:
SMILES | ugtP null kill | BJeLR lethal | Mtb hypoxia inh | Mtb hypoxia inh growth | RN4220 kill | Autofluor counter | PrP UTR inh
CCC1(c2ccccc2)NC(=O)N(CC(=O)Nc2ccccc2C(=O)NC2CC2)C1=O (configuration not stated) | -2.4 | -5.3 | 6.1 | -6.9 | 3.6 | ? | -5.4
O=C1NC(=O)C(=Cc2ccco2)N1 | 4.8 | . | 23.4 | 5.9 | 5.4 | . | .
CC(NC(=O)c1[nH]cnc1C(=O)Nc1nccs1)c1ccccc1 (configuration not stated) | 2.2&5.0 | . | 3.4&5.7 | 5.4&10.3 | 11.7&15.4 | . | .
Cc1cnc(C(=O)OCC(=O)NC(C)C)cn1 | 0.8 | 8.1 | 0.7 | 8.6 | 1.9 | 11635 | -2.5
CN1CCC(NC(=O)CCc2ccccc2)CC1 | 6.5 | -7.4 | 7.8 | 7.0 | 0.4 | 3581 | -7.4
O=S(=O)(N1CCCCCC1)N1CCNCC1 | 4.3 | 1.7 | 6.2 | -3.9 | 2.1 | 3815 | -9.1
Cc1ccc2nsnc2c1S(=O)(=O)N1CCN(CCc2ccccc2)CC1 | -1.5 | -6.1 | 0.5 | -4.5 | 5.1 | 6269 | -18.3
Cc1cc(N2C(=O)C(=O)/C(=C(/O)c3ccc(F)cc3)C2c2ccc(Cl)cc2)no1 (configuration not stated) | -10.0 | 4.9 | . | . | 15.1 | 4298 | -6.2
Cn1cccc1C(=O)NC(=O)COC(=O)c1ccccc1O | 6.2 | -4.2 | 5.2 | 12.7 | 4.1 | 4371 | -3.3
Cc1nnc(NC(=O)c2ccc(-c3cccc(C(F)(F)F)c3)o2)s1 | -10.8 | . | 7.8 | 7.2 | 5.6 | 5072 | -8.5
COc1ccc2c(=O)cc(CO)oc2c1 | 0.1 | . | -4.9 | 4.7 | 1.9 | 3558 | -1.3
Cc1nc(SCC(=O)N2CC(C)OC(C)C2)nc(C)c1C (configuration not stated) | 11.7 | -5.8 | 6.8 | -0.9 | 6.5 | 3445 | -0.8
O=C(Nc1ccccc1)N1CCC(C(=O)N(Cc2ccco2)Cc2cccs2)CC1 | 9.3 | -2.7 | 6.9 | 6.7 | 2.8 | 20994* | -29.5
CCN(CC)S(=O)(=O)c1cccc(-c2n[nH]c(=S)n2N=Cc2ccc(OC(F)F)cc2)c1 | -3.2 | . | -0.9 | 7.9 | 12.6 | . | .
COc1cccc(N2C(=O)CC(NNC(=O)c3cccs3)C2=O)c1 (configuration not stated) | 4.7 | 0.4 | 5.3 | 5.8 | 6.7 | 10037 | -21.9
COc1ccc(Cl)cc1-c1nc(SCC(=O)NC2CC2)n[nH]1 | 3.2 | 12.6 | 14.3 | 10.3 | 3.3 | 4441 | -21.0
CC1Sc2ccc(S(=O)(=O)CCC(=O)NC3CCCCC3C)cc2NC1=O (configuration not stated) | 6.1 | -7.7 | -8.5 | -6.9 | 2.5 | 4898 | -12.4
CC(=O)N1N=C(c2ccc(C)cc2)CC1c1ccc2c(c1)OCO2 (configuration not stated) | -6.7 | -7.5 | -3.8 | 3.5 | 4.1 | 5514 | -51.8
O=C(NCc1ccccc1)c1ccc(C2SCC(=O)N2Cc2ccccc2)cc1 (configuration not stated) | 11.3 | -0.8 | 3.3 | 5.5 | -3.4 | . | 2.3
CCC/C=C(\CCC)C(NC(=O)OCC(C)C)c1ccc(C(=O)OC)cc1 (configuration not stated) | . | 4.2 | . | . | . | 3427 | -14.7
COc1ccc(OC)c(NC(=O)CC(Cc2ccccc2OC)C(=O)O)c1 (configuration not stated) | 0.9 | -8.9 | -2.2 | 0.1 | 5.2 | 21142* | -14.8
CCOc1ccc(C2/C(=C(\O)c3c(C)[nH]c(C(=O)OC)c3C)C(=O)C(=O)N2CCN(C)C)cc1 (configuration not stated) | -3.1 | -15.1 | -4.8 | -10.4 | 1.6 | 8078 | -11.0
Cc1c(CN2CCC(C(=O)Nc3cccc(-c4cccc(Cl)c4)c3)CC2)cnn1C | -16.8 | 3.8 | 5.8 | 0.4 | -9.1 | 5900 | -22.0
COc1ccc(NC(=O)c2sc3cc(C(F)(F)F)cnc3c2-c2cccs2)cc1 | 10.2 | 0.2 | . | . | 10.2 | 2014 | -26.1

Single records, as listed above. Values in the order: ugtP null kill	BJeLR lethal	Mtb hypoxia inh	Mtb hypoxia inh growth	RN4220 kill	Autofluor counter	PrP UTR inh
`CCOc1ccc(C2/C(=C(\O)c3c(C)[nH]c(C(=O)OC)c3C)C(=O)C(=O)N2CCN(C)C)cc1` (configuration not stated) is listed with -3.1	-15.1	-4.8	-10.4	1.6	8078	-11.0
`O=C(Nc1ccccc1)N1CCC(C(=O)N(Cc2ccco2)Cc2cccs2)CC1` is listed with 9.3	-2.7	6.9	6.7	2.8	20994*	-29.5

More compounds follow.
SMILES | ugtP null kill | BJeLR lethal | Mtb hypoxia inh | Mtb hypoxia inh growth | RN4220 kill | Autofluor counter | PrP UTR inh
CCOC(=O)c1cc(-c2ccccc2)nc2c1c(C)nn2-c1ccccn1 | -12.1 | -6.5 | . | . | 10.9 | 2839 | -7.3
COc1cc(/C=N/Nc2nc(Nc3ccc(C)cc3)nc(-n3nc(C)cc3C)n2)cc(OC)c1OC | . | 0.4 | . | . | . | 9459 | -13.3
CCOc1ccc(-c2csc3nc[nH]c(=O)c23)cc1 | 5.4 | 6.4 | -3.0 | 1.0 | 4.8 | 3861 | -41.5
OC(COc1ccc(Cl)cc1Cl)Cn1ccnc1 (configuration not stated) | 2.4 | -2.9 | 11.0 | 6.6 | 2.8 | 3651 | .
Clc1nc(NCc2cccnc2)nc(N2CCOCC2)n1 | 0.7 | -7.9 | . | . | -4.1 | 3817 | -2.8

Assay outcomes deposited in PubChem BioAssay by several laboratories.
